gsp ag: agonists of gsp mutant (McCune-Albright syndrome) | Potency, µM (titrated, usually from 76.9 µM), inactives show at the highest dose activation (cAMP increase), actives largely listed as activators | 340,000 tested, 0.13% active | gsp mutant cells, cAMP HTRF, 30 min; control for the full effect not named in the record; active = well fitted activation curve with a large enough effect; inconclusive = small, poorly fitted or top-dose-only effect, or another doubt; inactive = no such curve, though single readings can be large or run the other way; cell line not stated here;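 further: phosphodiesterase inhibitor Ro 20-1724 added with compounds to block cAMP breakdown; potency means the concentration at half of the fitted maximal effect; nearly all actives have a fitted effect of over 60% in size; about a fifth of the inactives were tested at one dose only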
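Cells in DMEM/10% FBS with G418 were pretreated with compounds in DMSO plus […] (300 uM stock) for 30 min at 37C. cAMP was measured by HTRF (cAMP-d2 plus anti-cAMP antibody-K) after 30 min at room temperature.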
ClpP mod: qHTS Assay for Activators of ClpP | 340,000 tested, 1.9% active | AID 651965, 2013 | purified B. subtilis ClpP, FRET peptide cleavage, 20 min | Potency, µM (doses to about 57.5 µM), for the others: at the highest dose activity change, negative = active; active = well fitted falling curve with a large enough effect; inconclusive = small, poorly fitted or top-dose-only effect; inactive = no such curve, though single readings can be large or run the other way; further: potency means the concentration at half of the fitted maximal effect; the source files actives as falling curves though it sought activators and does not explain the sign; nearly all actives have a fitted effect of over 65% in size; many hits overshoot -100%
Target sequence (P80244 whole entry, looked up): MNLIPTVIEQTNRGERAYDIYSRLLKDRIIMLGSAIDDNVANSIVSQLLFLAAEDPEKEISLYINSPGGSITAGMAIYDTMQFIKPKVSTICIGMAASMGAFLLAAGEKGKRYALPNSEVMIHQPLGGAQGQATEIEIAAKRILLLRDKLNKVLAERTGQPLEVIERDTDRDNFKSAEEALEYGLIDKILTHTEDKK
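ClpP 10 microg/mL final, pH 8 Tris/KCl buffer with BSA, glycerol, Tween-20; compound pinned in; FRET-FV substrate; RT 20 min; Ex320/Em430; ΔFRET vs ADEP 5.8 microM, DMSO, no enzyme.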
gsp antagonist: antagonists of gsp mutant (McCune-Albright syndrome) | 340,000 tested, 0.4% active | Potency, µM (titrated, usually from 76.9 µM), inactives show at the highest dose activity change, negative = inhibition, hits mostly inhibitors | gsp-mutant cells, cAMP HTRF, 30 min; control for the full effect not named in the record | AID 624288; active = falling curve of any shape with a large fitted effect; inconclusive = falling curve, mostly with a smaller effect; inactive = flat or rising curve; cell line not stated here;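 further: intracellular cAMP measured with PDE inhibitor Ro 20-1724 present during compound exposure; potency means the concentration at half of the fitted maximal effect; on the % scale 0 is the no-effect control and ±100 the full control effect; nearly all actives have a fitted effect of over 65% in size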
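Cells in G418 medium, seeded 16-24 h, 37C; buffer exchange to DPBS + 1 mM CaCl2, 0.5 mM MgCl2, 0.05% BSA; cpds in DMSO + […] (300 uM stock), 30 min 37C; HTRF cAMP detection.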
D2 agonist: agonists of human D2 dopamine receptor (beta-arrestin); P14416; DiscoveRx PathHunter D2 beta-arrestin, luminescence, 90 min; 100% = 57 uM dopamine signal; activation, % (concentration not given with the values); 360,000 tested, 0.084% active; in the data active = activation above about 40%; inconclusive = about 15% to 40%; inactive = below about 15%; further: compound concentration not given in the record; the text of the record calls up to 30% inactive
Target sequence (P14416 whole entry, looked up): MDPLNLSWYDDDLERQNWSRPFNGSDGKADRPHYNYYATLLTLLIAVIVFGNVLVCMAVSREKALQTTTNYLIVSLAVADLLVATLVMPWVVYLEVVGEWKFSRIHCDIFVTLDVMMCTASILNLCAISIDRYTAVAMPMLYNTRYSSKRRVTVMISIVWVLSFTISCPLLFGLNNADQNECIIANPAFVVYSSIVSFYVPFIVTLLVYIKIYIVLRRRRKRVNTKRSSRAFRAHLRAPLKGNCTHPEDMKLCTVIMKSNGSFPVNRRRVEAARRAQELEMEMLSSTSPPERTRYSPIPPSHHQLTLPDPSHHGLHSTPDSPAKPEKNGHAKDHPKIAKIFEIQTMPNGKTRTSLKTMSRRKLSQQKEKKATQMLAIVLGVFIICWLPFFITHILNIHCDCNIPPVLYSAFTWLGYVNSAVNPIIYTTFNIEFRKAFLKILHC
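DiscoveRx PathHunter D2 beta-arrestin cells (2,100/well) attached overnight, then compound-stimulated 90 min at 37 C in HBSS/10 mM HEPES/0.1% Tween-20 buffer; beta-galactosidase complementation read by luminescence after 1 h at ambient temperature. Dopamine 57 uM final (EC100) as control.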
PINK1 modulator: modulators of PINK1 expression | PINK1 immunofluorescence, high-content cytometry, 24 h | Potency, µM (highest dose often 76.6 µM), for the others: at the top dose activation (PINK1 increase), hits mostly activators | 410,000 tested, 0.2% active | AID 624263; active = well fitted activation curve with a large enough effect; inconclusive = small, poorly fitted or top-dose-only effect; inactive = flat fitted curve, though single readings scatter; cell line not stated here;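 further: potency means the concentration at half of the fitted maximal effect; % of control where 0% means no effect; nearly all actives have a fitted effect of over 65% in size; a mitochondrial uncoupler was the plate control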
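Compound titrations (5 concentrations, 24 h) on a stable cell line; DMSO and CCCP controls. Endpoint: fixed-cell PINK1 immunofluorescence with mitochondrial, cell and nuclear markers, scanned by microplate cytometer.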
Sfp inh: blocks B. subtilis Sfp PPTase activity; Biochemical Sfp PPTase activity, qHTS; 310,000 tested, 3.5% active; Potency, µM, without a hit: max response, negative = inhibition, hits mostly inhibitors; AID 1490; active means well fitted inhibition curve with a large enough effect; inconclusive means small, poorly fitted or top-dose-only effect, or another doubt; inactive means no such curve, though single readings can be large or run the other way;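 further: the enzyme is Sfp with the accession as filed and its product quenches rhodamine fluorescence; potency means the concentration at half of the fitted maximal effect; 0% = enzyme reaction without inhibitor and -100% = no enzyme wells; top concentration of the series not given in the record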
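Compounds were incubated with enzyme (final 15 nM) for 15 min at room temperature before substrate addition started the reaction. Fluorescence at 525 nm excitation, 598 nm emission was recorded immediately and after 30 minutes.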
Menin MLL FP FL: displaces fluorescein MLL peptide from human menin; 290,000 tested, under 10 active; Fluorescence polarization, fluorescein-MLL peptide displacement from menin; FP activity change, % at 61.4 µM; inconclusive = falling polarisation curve, or a change in total fluorescence; inactive = total fluorescence flat and polarisation flat or rising; no compound was filed as active; the % refers to the polarisation; negative = inhibition;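 further: % of control where 0% means no effect; inhibitors lower the polarisation; unlabelled MLL peptide was the positive control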
* hit, by the source's call; ? = inconclusive; . = not tested or not shown; & = joins results of further samples; [ ] = remark or other dose.

SMILES	gsp ag	ClpP mod	gsp antagonist	D2 agonist	PINK1 modulator	Sfp inh	Menin MLL FP FL
COc1cccc(NC(=O)CN(C)C(=O)CCC(=O)c2cc(C)sc2C)c1	-14.5%[15.4 µM]	.	-1.2%	2.2	-1.5%	.	.
COc1cccc(Nc2ncc3nc(C)c(=O)n(C[C@H]4CCCO4)c3n2)c1	.	.	.	.	2.1%	6.7%	8.7
CN=C1N(C)C[C@@H]2[C@@H]3C(=O)N(Cc4ccccc4)C(=O)[C@@H]3[C@](Cc3ccccc3)(C(=O)OC)N12	.	-3.5%	3.3%	-1.3	1.5%	.	.
Cc1cc(C(=O)Nc2nc3ccc(S(C)(=O)=O)cc3s2)c(C)o1	7.1%	-7.6%	34.6%[activator]	0.0	?	-5.9%	10.8
Cc1ccc(S(=O)(=O)n2nc(-c3ccc(Cl)cc3)nc2NCc2ccco2)cc1	0.0%	3.4%	12.2%	-3.8	1.3%	14.8%	-3.0
CC/C=C/C(=O)N1CC2(CC(c3cccc(NC(=O)CCCCC)c3)=NO2)C[C@H]1C(N)=O (some centres not stated)	22.6%	-3.2%	6.2%	0.4	-0.1%	7.9%	3.7
Cn1c(=O)oc2cc(S(=O)(=O)NCCC(=O)Nc3ccc4c(c3)OCCO4)ccc21	-33.5%[inhibitor]	-2.9%	6.5%	1.0	2.5%[38.3 µM]	22.2%	-0.5
COc1ccccc1-c1coc2c(CN3CCC(C)CC3)c(O)ccc2c1=O	?	.	-6.2%	-2.9	-0.1%	2.8%	-3.0
CCOC(=O)c1c(NC(=O)CSc2nnc(CNc3ccc(Cl)cc3)o2)sc(C)c1C	1.6%	-0.1%	-11.3%	-4.5	-0.4%	-11.0%	-1.4
Cc1ccc(S(=O)(=O)N2CCOCC2)cc1C(=O)OCC(=O)NCc1ccccc1	5.5%	-4.7%	11.2%	1.8	0.8%	.	.
COc1ccc(C2=NOC(C(=O)Nc3cc(C)on3)C2)cc1OC (configuration not stated)	-2.3%	-4.1%	12.1%	-3.7	-0.4%	-11.3%	3.2
CCN(Cc1ccccc1)C(c1ccccn1)c1nnnn1C1CCCCC1 (configuration not stated)	-35.1%[inhibitor]	-3.7%	-25.1%	-2.1	0.9%	0.5%	1.8
CCCNC(=O)C1(C)CCN(C(=O)c2ccc(F)c(Cl)c2)C1 (configuration not stated)	.	0.2%	.	-5.3	2.8%	.	.
CC1CN(C(=O)Cn2cc(S(=O)(=O)CC(=O)N3CCOCC3)c3ccccc32)CC(C)O1 (configuration not stated)	15.7%	-0.1%	-3.5%	-0.2	1.0%	8.1%	.
COc1ccccc1CNc1cc(-c2cccc(NS(C)(=O)=O)c2)ncn1	.	.	.	.	1.6%	-9.4%	0.5
Cc1ccc2c(c1)CCCN2C(=O)c1cc(C)c(C)s1	2.6%[15.4 µM]	-2.8%	-12.5%	-2.4	0.3%	.	.
CN(C)S(=O)(=O)Nc1ccc(Br)cc1F	4.6%	-1.8%	6.1%	-0.4	-1.3%	-0.5%	3.0
COc1cc2c(O)c3c(c(-c4ccc5c(c4)OCO5)c2cc1OC)C(=O)OC3	?	?	-0.8%	2.8	3.7%	-27.6%	4.5
O=C(c1cccs1)N1N=C(c2ccccc2)CC1c1ccccc1 (configuration not stated)	-35.0%[inhibitor]	-6.5%	?	-0.5	-2.7%[38.3 µM]	39.8µM*	-1.4
O=C(Nc1cc2c(cc1Br)OCCO2)c1ccc(=O)[nH]c1	-8.2%	-1.5%	-3.3%	10.9	-0.6%	.	.
O=C(Nc1ccccc1F)C(=O)Nc1cccc2ccccc12	1.5%[15.4 µM]	0.5%	4.6%	-1.6	6.7%	10.4%	0.9
COc1ccc(-c2c(-c3cc(OC)cc(OC)c3)n(C)c3ccc(-c4ccc5c(c4)OCCO5)cc23)cc1	2.6%	4.4%	7.6%	-0.8	-0.4%	.	.
CCc1nc2ccc(C(=O)N3CCN(C(=O)c4ccco4)CC3)cn2c1N(C)CCC(C)C	.	-2.3%	.	-1.8	-1.2%	.	.
Cc1c(C(=O)NCc2ccccc2C(F)(F)F)sc(=O)n1Cc1ccc2c(c1)OCO2	.	-1.5%	.	8.1	0.5%	.	.
COc1ccc(OCC(=O)NC(=S)Nc2ccc3c4c(cccc24)CC3)cc1	?	.	16.1%	-2.8	2.7%	-22.2%	0.3
More entries follow.
SMILES	gsp ag	ClpP mod	gsp antagonist	D2 agonist	PINK1 modulator	Sfp inh	Menin MLL FP FL
CC(C)CN(C(=O)COC(=O)c1ccc(Cl)nc1)c1c(N)n(Cc2ccccc2)c(=O)[nH]c1=O	-3.0%	-0.4%	7.6%	-4.2	-3.6%	.	.
COc1ccc(CNc2nc(-c3cccnc3)nn2C(=O)CC(C)C)cc1	-19.3%[15.4 µM]	.	.	-2.4	-0.4%	?	-8.8
Cc1cnc(C(=O)Oc2ccc(-c3ccccc3)cc2)cn1	12.6%	.	3.3%	-1.3	0.7%	2.8%	1.7
CN(C(=O)c1ccc2c(c1)OCO2)C1CCS(=O)(=O)C1 (configuration not stated)	5.3%[15.4 µM]	0.2%	8.9%	4.8	-0.4%	.	.
O=C(c1ccc(S(=O)(=O)N2CCOCC2)cc1)N1CCN(c2ccccn2)CC1	-12.8%	-1.2%	2.6%	-5.4	4.2%	1.8%	0.4
CCCC(=O)Oc1ccc(N(C(=O)CCC)S(=O)(=O)c2cccc([N+](=O)[O-])c2)cc1	-9.4%	-0.8%	0.2%	5.6	4.5%	12.3%	0.7
C=CCCC(=O)N1CCC(CCC(=O)NC2CC2)CC1	2.4%	0.3%	21.7%	-4.5	-1.1%	11.8%	5.3
COc1cc(C(=O)NC(=S)Nc2ccc([N+](=O)[O-])cc2)cc(OC)c1OC	-9.4%	-2.2%	-4.4%	-4.2	?	44.7µM*	1.2
O=C(C1CC(=O)N(c2ccc3c(c2)OCCO3)C1)N1CCN(c2ccccc2O)CC1 (configuration not stated)	0.5%	-3.1%	-14.4%	13.3	-0.2%	15.8%	.
O=C(N/N=C/c1c[nH]c2ccc(Br)cc12)c1ccncc1	-6.1%	-2.5%	2.3%	2.1	2.6%	7.3%	1.0
CCOc1cc(C(=O)NCCN2C(=O)S/C(=C\c3cccnc3)C2=O)cc(OCC)c1OCC	-19.1%	1.8%	-12.5%	-1.7	-0.1%	-21.9%	14.2
CC1CC(C)(C)NC2(CCCC2)N1 (configuration not stated)	-3.1%[15.4 µM]	-2.2%	5.1%	-3.4	-0.2%	.	.
O=C(CCCCCn1c(=S)[nH]c2cc3c(cc2c1=O)OCO3)N1CCN(c2ccc(F)cc2)CC1	?	.	6.7%	6.2	4.1%	17.0%	.
Cc1ccc2c(c1)C(=O)C(=O)N2CC(=O)OC(C)C	0.0%	0.7%	15.7%	-12.1	7.3%	8.2%	-2.9
COC(C[C@H]1O[C@@H]1C(=O)COCc1ccccc1)OC	8.9%	1.4%	0.8%	-1.1	-0.2%	.	.
CCOC(=O)Cn1ccc(NC(=O)c2ccc(F)cc2)n1	-26.0%	0.3%	0.3%	-0.7	5.2%	19.4%	0.7
O=C1Nc2ccccc2/C1=C\C(=O)c1ccccc1	?	0.5%	6.8%	-21.4	-3.7%	?	-9.5
c1cnc(NC2CCCCCC2)nc1	-40.8%[inhibitor]	-28.4%	-5.5%	0.1	?	16.8%	3.2
COc1cc2nc(-c3ccc(Br)o3)oc(=O)c2cc1OC	0.0%	-17.8%	-13.2%	1.6	-0.7%	?	-0.1
CC1(C)CC(NC(=O)CCc2ccccc2)CC(C)(C)N1	15.2%	-12.9%	6.6%	-1.4	-1.3%	17.0%	0.0
COC(=O)C1C(O)=C(C=Nc2ccc(N)cc2)C(=O)CC1(C)C (configuration not stated)	?	-1.0%	-0.2%	1.1	-1.5%	5.8%	9.1
C/C(CC(=O)NC1CCCC1)=N\NC(=O)c1ccc([N+](=O)[O-])c(Cl)c1	?	-1.4%	10.0%	1.1	-0.9%	?	3.0
CC1(c2ccccc2)CC(c2ccccc2)=C(C#N)C(=O)N1 (configuration not stated)	10.1%	2.1%	-1.1%	-2.5	-4.6%	.	.
COc1ccc(C)cc1NC(=O)CSc1nnnn1Cc1ccccc1	16.3%[15.4 µM]	-0.8%	-30.8%	0.9	-0.8%	10.5%	-0.3
COc1ccc(Nc2c(C)cccc2C)cc1	-34.5%[inhibitor]	-0.9%	-30.7%	-2.5	1.3%	-4.8%	1.4
Further entries follow:
SMILES	gsp ag	ClpP mod	gsp antagonist	D2 agonist	PINK1 modulator	Sfp inh	Menin MLL FP FL
COc1ccc(CNC(=O)C2(C)Cc3c(-c4ccc(N(C)C)cc4)ccnc3O2)cc1OC (configuration not stated)	.	4.6%	.	6.2	1.1%	.	.
N=Nc1c(O)n(CC(=O)Nc2ccccc2)c2ccccc12	-1.7%	-0.1%	2.3%	-5.0	0.3%	6.9%	0.0
C=CCCC(=O)N1C[C@H]2CON(C)[C@H]2C[C@H]1c1ccc(Br)cc1	?	0.3%	.	-1.8	1.3%	.	.
COc1cccc(C(=O)NCC(=O)N2CCC3(CC2)NCCc2[nH]cnc23)c1	25.5%	1.3%	10.8%	-4.5	-0.6%	5.6%	.
c1ccc(CN2CCN(CCN3CCn4c3nc3ccccc34)CC2)cc1	-1.4%	-2.1%	1.0%	-1.5	-1.4%	13.5%	1.2
COc1ccc(CCNC(=O)C2CC(O)CN2S(=O)(=O)c2ccc(Cl)cc2)cc1OC (configuration not stated)	-29.3%[15.4 µM]	-3.8%	12.3%	-3.9	-1.8%	.	.
COc1cc2c(cc1OC)C(C)N(C(=O)Cn1ncc3c1-c1cc(C)ccc1OC3)CC2 (configuration not stated)	-30.2%[inhibitor]	-3.9%	-4.4%	2.7	3.4%	6.5%	3.4
Cc1ccc2nc(SCCC#N)nc(C)c2c1	-2.5%	-4.9%	8.0%	-5.4	-1.6%	1.1%	-0.6
Cn1c(=O)n(CC(=O)O)c(=O)c2c1nc1n2CCS1	1.0%&-78.1%	1.0%&0.1%	?	-1.4&-0.2	0.3%&0.9%	16.7%&3.1%	2.7&-1.0
Cc1ccc(SCc2cc(=O)[nH]c(N3CCOCC3)n2)cc1	29.4%	1.1%	-6.8%	-3.5	-3.0%	2.3%	5.6
CCc1cccc(NC(=O)c2cc(S(=O)(=O)N3CCCCC3)ccc2N2CCOCC2)c1	?	?	.	-3.5	-1.2%	.	.
COCC1CCCCN1Cc1cn[nH]c1-c1ccc(OC)cc1OC (configuration not stated)	2.7%	.	10.4%	0.8	-0.4%	24.9%	-2.6
